# Source: PubChem
# Vaccinia inh = blocks a specific stage of Vaccinia orthopoxvirus infection, primary screen, cell-based, single point. Vaccinia-infected cells, mCherry/Venus stage reporter fluorescence; stronger effect = lower value; some inactives read as strong as hits. activity change (mCherry), % (test concentration not listed). actives 0.01% (n = 89,000). AID 1053133, 2014;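 active = mCherry past -33% and 40 or more points under the early reporter, replicates agreeing; inconclusive = past -33% without that gap or agreement; tested in A549 cells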;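 also: scaled between vehicle wells and reference inhibitor wells; 23 nL library stock went into each well; one replicate is shown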
# Vaccinia inh Venus = also measured in Vaccinia inh; calls as there; activity change (Venus), %; measured here: Venus reporter, other viral stage;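 negative = less Venus signal; first of two replicates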
# An asterisk follows results filed as active; u = inconclusive; x = not tested or not shown.
# The line under a structure holds: Vaccinia inh	Vaccinia inh Venus
Cc1ccc(S(=O)(=O)N[C@@H]2CC[C@@H](CCNC(=O)C3CC3)O[C@@H]2CO)cc1
    26	10
C[C@@H]1CN([C@H](C)CO)S(=O)(=O)c2ccc(C#Cc3cccc(F)c3)cc2O[C@H]1CN(C)C(=O)CN1CCOCC1
    u	x
CN(C)CC(=O)Nc1ccc2c(c1)[C@H]1C[C@@H](CC(=O)NC3CCCC3)O[C@@H](CO)[C@H]1O2
    10	9
CCCNC(=O)N1C[C@H](O)COC[C@H]2O[C@@H](CC(=O)N[C@H]3CCN(Cc4ccccc4)C3)CC[C@@H]21
    14	8
COc1cccc(NC(=O)N(C)C[C@H]2Oc3cc(C#Cc4ccncc4)ccc3S(=O)(=O)N([C@@H](C)CO)C[C@@H]2C)c1
    u	x
C[C@@H]1CCCCO[C@@H](CN(C)C(=O)C2CCCCC2)[C@H](C)CN([C@H](C)CO)C(=O)c2cc(NS(=O)(=O)c3ccc(Cl)cc3)ccc2O1
    u	x
CCCC(=O)Nc1ccc2c(c1)OC[C@H](C)N(Cc1ccccn1)C[C@@H](C)[C@@H](OC)CN(C)C2=O
    4	6
O=C(CN1CCOCC1)NCC[C@H]1CC[C@@H](NS(=O)(=O)c2ccc(Cl)cc2)[C@@H](CO)O1
    13	16
C[C@H](CO)N1C[C@H](C)[C@H](CN(C)C)Oc2cc(C#CC3CC3)ccc2S1(=O)=O
    20	-5
CC(C)NC(=O)Nc1ccc2c(c1)C(=O)N([C@H](C)CO)C[C@@H](C)[C@H](CN(C)Cc1ccncc1)OCCCC[C@@H](C)O2
    12	-9

# Other entries.
# The line under a structure holds: Vaccinia inh	Vaccinia inh Venus
O=C(C[C@H]1C[C@H]2c3cc(NC(=O)Nc4ccccc4)ccc3O[C@H]2[C@@H](CO)O1)NCc1ccccn1
    13	8
Cc1cccc(-c2ccc([C@@H]3[C@@H](CO)N4CCCCN(S(=O)(=O)c5cccs5)C[C@H]34)cc2)c1
    -17	-14
C/C=C/c1ccccc1[C@H]1[C@@H](C#N)N(c2nc(CC)cs2)[C@@H]1CO
    -13	-7
CC(C)NC(=O)Nc1ccc2c(c1)CC(=O)N([C@@H](C)CO)C[C@H](C)[C@H](CN(C)Cc1ccc(C(=O)Nc3ccccc3N)cc1)O2
    10	4
C[C@H]1CN([C@@H](C)CO)S(=O)(=O)c2ccc(-c3ccc(F)cc3)cc2O[C@@H]1CN(C)C
    -20	-21
CNC[C@H]1Oc2ccc(NS(=O)(=O)c3ccc(F)cc3)cc2CC(=O)N([C@H](C)CO)C[C@@H]1C
    20	14
C[C@@H]1CN([C@@H](C)CO)C(=O)c2cc(NC(=O)c3ccncc3)ccc2O[C@H]1CN(C)Cc1ccc(Oc2ccccc2)cc1
    -19	-17
C[C@@H]1CN([C@@H](C)CO)C(=O)c2cc(C#Cc3ccncc3)cnc2O[C@@H]1CN(C)S(=O)(=O)c1ccccc1F
    10	-2
C[C@@H]1CN([C@@H](C)CO)C(=O)c2cc(NC(=O)Cn3cnnn3)ccc2O[C@@H]1CN(C)CC1CC1
    6	-2
COCC(=O)N1CC(=O)N2[C@H](C1)[C@H](c1ccc(-c3ccccc3)cc1)[C@@H]2CO
    36	10

# (continued)
# The line under a structure holds: Vaccinia inh	Vaccinia inh Venus
COc1ccc(S(=O)(=O)N(C)C[C@@H]2Oc3c(NC(=O)C4CCCCC4)cccc3C(=O)N([C@H](C)CO)C[C@H]2C)cc1
    -11	-12
O=C(CC1CC1)Nc1ccc2c(c1)[C@@H]1C[C@@H](CC(=O)NC3CCCCC3)O[C@H](CO)[C@@H]1O2
    2	-1
O=S(=O)(c1ccc(F)cc1)N1CCCCN2[C@H](C1)[C@@H](c1ccc(-c3ccccc3F)cc1)[C@@H]2CO
    -5	-3
COCC#Cc1cnc2c(c1)C(=O)N([C@@H](C)CO)C[C@@H](C)[C@H](CN(C)C(=O)c1ccc(F)cc1)O2
    10	3
O=C(C[C@H]1C[C@@H]2c3cc(NC(=O)C4CCC4)ccc3O[C@@H]2[C@H](CO)O1)NCc1ccncc1
    10	1
CCC(=O)N(C)C[C@H]1Oc2ncc(C#Cc3ccc(OC)cc3)cc2C(=O)N([C@H](C)CO)C[C@H]1C
    7	-2
C[C@@H]1CCCCO[C@@H](CN(C)CC2CCCCC2)[C@H](C)CN([C@H](C)CO)C(=O)c2cc(NC(=O)CCCCCC(=O)Nc3ccccc3N)ccc2O1
    14	11
C[C@@H]1CN([C@H](C)CO)C(=O)Cc2cc(NC(=O)CCC(F)(F)F)ccc2O[C@H]1CN(C)S(=O)(=O)c1ccc(Cl)cc1
    4	5
C[C@@H]1CN([C@@H](C)CO)C(=O)c2cc(NS(=O)(=O)c3cn(C)cn3)ccc2O[C@@H]1CN(C)Cc1ccc(C(=O)O)cc1
    12	7
CC(C)CC#Cc1cnc2c(c1)C(=O)N([C@@H](C)CO)C[C@@H](C)[C@@H](CN(C)C(=O)CC1CC1)O2
    -3	1

# Next results.
# The line under a structure holds: Vaccinia inh	Vaccinia inh Venus
Cc1noc(C)c1NC(=O)NCC[C@@H]1CC[C@@H](NC(=O)Nc2cccc(Cl)c2)[C@@H](CO)O1
    -9	0
CCC(=O)N[C@@H]1CC[C@@H](CCNS(=O)(=O)c2ccc(Cl)cc2)O[C@@H]1CO
    4	4
COc1cccc(NC(=O)N2CC(=O)N3[C@H](CO)[C@H](c4ccc(C#CCC5CCCC5)cc4)[C@H]3C2)c1
    -22	-10
Cc1noc(C)c1NC(=O)Nc1ccc2c(c1)C(=O)N([C@H](C)CO)C[C@@H](C)[C@H](CN(C)Cc1ccccc1)O2
    4	5
COc1ccc(S(=O)(=O)N(C)C[C@H]2OCCCC[C@@H](C)Oc3ccc(NC(=O)CCCN(C)C)cc3C(=O)N([C@@H](C)CO)C[C@@H]2C)cc1
    22	-1
C[C@@H]1CCCCO[C@@H](CN(C)C(=O)Nc2ccc3c(c2)OCO3)[C@H](C)CN([C@@H](C)CO)C(=O)c2cc(NC(=O)C3CCCCC3)ccc2O1
    -14	-8
C[C@H](CO)N1C[C@H](C)[C@@H](CN(C)C(=O)C2CCCCC2)Oc2cc(C#CCN(C)C)ccc2S1(=O)=O
    -1	-1
C[C@H]1CN([C@@H](C)CO)C(=O)Cc2cc(NS(=O)(=O)c3ccccc3)ccc2O[C@H]1CN(C)Cc1ccc(Oc2ccccc2)cc1
    u	x
C[C@H]1CN([C@@H](C)CO)C(=O)c2cccc(N(C)C)c2O[C@@H]1CN(C)Cc1ccc2c(c1)OCO2
    -2	11
C[C@H](CO)N1C[C@H](C)[C@@H](CN(C)C(=O)NC2CCCCC2)Oc2ccc(N(C)C)cc2CC1=O
    20	5

# More entries:
# The line under a structure holds: Vaccinia inh	Vaccinia inh Venus
COc1ccc(S(=O)(=O)Nc2cccc3c2O[C@H](CN(C)C(=O)Nc2ccc4c(c2)OCO4)[C@H](C)CN([C@H](C)CO)C3=O)cc1
    16	7
COCCNC(=O)C[C@@H]1CC[C@H]2[C@@H](COC[C@H](O)CN2C(=O)Nc2ccccc2OC)O1
    6	-3
C[C@H]1CN([C@@H](C)CO)C(=O)c2cc(-c3cncnc3)cnc2O[C@@H]1CN(C)Cc1ccccc1
    -3	-7
CO[C@@H]1CN(C)C(=O)c2ccc(NS(C)(=O)=O)cc2OC[C@@H](C)N(CC2CCOCC2)C[C@@H]1C
    11	5
O=C(C[C@@H]1C=C[C@H](NC(=O)Nc2ccccc2F)[C@@H](CO)O1)NCc1ccc(Cl)cc1
    -3	-3
O=C(Nc1ccccc1)[C@@H]1[C@@H](CO)[C@@H]2Cn3c(cccc3=O)[C@@H]2N1C(=O)C1CCC1
    29	16
C/C=C/c1ccc([C@H]2[C@@H](CO)N[C@@H]2CN(CC)C(=O)c2ccccn2)cc1
    -9	1
O=C(N[C@H]1CC[C@@H](CCn2cc(C3(O)CCCC3)nn2)O[C@@H]1CO)C1CCCC1
    -3	10
COCC(=O)Nc1ccc2c(c1)OC[C@@H](C)N(Cc1cc(-c3ccccc3)on1)C[C@@H](C)[C@H](OC)CN(C)C2=O
    4	-2
C[C@H]1CN([C@@H](C)CO)C(=O)c2cccc(NS(=O)(=O)c3ccc(F)cc3)c2O[C@@H]1CN(C)S(=O)(=O)c1ccc(Cl)cc1
    u	x

# The final 2 entries of the part above open the next one:
# The line under a structure holds: Vaccinia inh	Vaccinia inh Venus
COCC(=O)Nc1ccc2c(c1)OC[C@@H](C)N(Cc1cc(-c3ccccc3)on1)C[C@@H](C)[C@H](OC)CN(C)C2=O
    4	-2
C[C@H]1CN([C@@H](C)CO)C(=O)c2cccc(NS(=O)(=O)c3ccc(F)cc3)c2O[C@@H]1CN(C)S(=O)(=O)c1ccc(Cl)cc1
    u	x
C[C@@H]1CN([C@H](C)CO)C(=O)Cc2cc(NS(=O)(=O)c3cccs3)ccc2O[C@H]1CN(C)C
    8	8
CCC(=O)N(C)C[C@H]1Oc2cc(C3=CCCC3)ccc2S(=O)(=O)N([C@@H](C)CO)C[C@H]1C
    4	1
C[C@@H]1CCCCO[C@H](CN(C)S(=O)(=O)c2ccc(F)cc2)[C@@H](C)CN([C@H](C)CO)C(=O)c2cc(NC(=O)c3ccncc3)ccc2O1
    9	-5
C[C@@H]1CCCCO[C@@H](CN(C)C(=O)Nc2ccc(F)cc2)[C@@H](C)CN([C@H](C)CO)C(=O)c2cc(NC(=O)Nc3cccc4ccccc34)ccc2O1
    29	13
Cc1ccc(S(=O)(=O)Nc2ccc3c(c2)C(=O)N([C@@H](C)CO)C[C@H](C)[C@@H](CN(C)S(=O)(=O)c2ccccc2)OCCCC[C@H](C)O3)cc1
    -18	-19
CC(C)NC(=O)Nc1ccc2c(c1)C(=O)N([C@H](C)CO)C[C@H](C)[C@@H](CN(C)S(=O)(=O)c1cccs1)OCCCC[C@@H](C)O2
    11	4
CS(=O)(=O)N1CC(=O)N2[C@H](C1)[C@@H](c1ccc(C#Cc3ccccc3)cc1)[C@@H]2CO
    u	x
C[C@@H]1CCCCO[C@@H](CN(C)Cc2ccc(C(=O)O)cc2)[C@H](C)CN([C@@H](C)CO)C(=O)c2cc(NC(=O)c3ccncc3)ccc2O1
    23	6
CO[C@@H]1CN(C)C(=O)c2cc(NS(=O)(=O)c3ccccc3)ccc2OC[C@@H](C)N(Cc2ccccn2)C[C@H]1C
    -2	0
O=C(NCC[C@H]1CC[C@H](NS(=O)(=O)c2ccc(F)cc2)[C@@H](CO)O1)Nc1ccc(Cl)cc1
    -22	-18

# Next records follow.
# The line under a structure holds: Vaccinia inh	Vaccinia inh Venus
CC(=O)N1[C@H](CO)[C@@H]2c3ccccc3N(C(=O)Nc3cc(F)ccc3F)C[C@@H]21
    -7	-1
CCCNC(=O)Nc1ccc2c(c1)C(=O)N(C)C[C@@H](OC)[C@@H](C)CN(Cc1cccnc1)[C@H](C)CO2
    8	7
COCC(=O)Nc1ccc2c(c1)OC[C@@H](C)N(C(=O)NC(C)C)C[C@@H](C)[C@@H](OC)CN(C)C2=O
    16	18
CCC(=O)N(C)C[C@H]1Oc2ncc(-c3ccc(C(=O)N(C)C)cc3)cc2C(=O)N([C@H](C)CO)C[C@@H]1C
    21	5
CCCC#Cc1ccc([C@@H]2[C@H]3CN(C(=O)CN4CCOCC4)CC(=O)N3[C@H]2CO)cc1
    5	4
COCC#Cc1ccc2c(c1)O[C@@H](CN(C)Cc1ccccc1F)[C@@H](C)CN([C@H](C)CO)S2(=O)=O
    13	7
Cc1ccc(S(=O)(=O)Nc2ccc3c(c2)C(=O)N([C@H](C)CO)C[C@@H](C)[C@@H](CN(C)C(=O)NC(C)C)OCCCC[C@@H](C)O3)cc1
    -22	-19
CCC(=O)Nc1ccc2c(c1)C(=O)N(C)[C@@H]1CC[C@@H](CC(=O)NCCOC)O[C@@H]1CO2
    13	8
C[C@@H]1CN([C@@H](C)CO)C(=O)c2cc(NC(=O)Cn3cnnn3)ccc2O[C@H]1CN(C)Cc1ccc(C(=O)O)cc1
    0	-1
O=C(C[C@@H]1C[C@@H]2c3cc(NC(=O)CC4CC4)ccc3O[C@@H]2[C@H](CO)O1)NCC1CC1
    20	17

# Continuation.
# The line under a structure holds: Vaccinia inh	Vaccinia inh Venus
O=C(C1CCCC1)N1CC[C@@H]2[C@@H](CO)Nc3ccc(C#Cc4ccc(F)cc4)cc3[C@@H]21
    u	x
C[C@@H]1CCCCO[C@@H](CN(C)C(=O)c2ccccc2)[C@H](C)CN([C@H](C)CO)C(=O)c2cc(NC(=O)Nc3ccccc3)ccc2O1
    -28	-17
COC(=O)N(C)C[C@@H]1OCc2ccccc2-c2c(n(C)c3ccccc23)C(=O)N([C@H](C)CO)C[C@H]1C
    4	2
C[C@@H]1CN([C@@H](C)CO)S(=O)(=O)c2ccc(-c3cncnc3)cc2O[C@H]1CN(C)C(=O)C1CCC1
    12	6
COc1cccc(-c2ccc3c(c2)O[C@H](CN(C)C)[C@H](C)CN([C@H](C)CO)S3(=O)=O)c1
    -9	-12
O=C(CC1CC1)N[C@H]1CC[C@@H](CCNS(=O)(=O)c2ccc(F)cc2)O[C@@H]1CO
    -2	-1
C[C@@H]1CN([C@H](C)CO)S(=O)(=O)c2ccc(C3=CCCC3)cc2O[C@@H]1CN(C)C(=O)Cc1ccncc1
    13	4
C[C@H]1CN([C@@H](C)CO)C(=O)Cc2cc(NS(=O)(=O)c3ccc(Cl)cc3)ccc2O[C@H]1CN(C)C
    3	-2
C[C@@H]1CN([C@H](C)CO)C(=O)Cc2cc(NC(=O)C3CCCCC3)ccc2O[C@@H]1CN(C)Cc1ccccc1
    -31	-19
CC=Cc1ccc2n(c1=O)C[C@@H]1[C@@H](CO)[C@H](C(=O)NCC3CC3)N(CCC(F)(F)F)[C@H]21 (mixture of isomers)
    2	4

# Whole records from above:
# COc1cccc(-c2ccc3c(c2)O[C@H](CN(C)C)[C@H](C)CN([C@H](C)CO)S3(=O)=O)c1 is entered as Vaccinia inh: -9; Vaccinia inh Venus: -12
# C[C@@H]1CN([C@H](C)CO)C(=O)Cc2cc(NC(=O)C3CCCCC3)ccc2O[C@@H]1CN(C)Cc1ccccc1 is entered as Vaccinia inh: -31; Vaccinia inh Venus: -19

# Not all compounds are listed. The share of hits here may be higher or lower than overall.
